PINK1 expr mod: A Quantitative High throughput Screen to Identify Chemical Modulators of PINK1 Expression; Potency, µM (series often up to 76.6 µM), without a hit: top-dose activation (PINK1 increase), actives largely listed as activators; actives 0.2% (n = 410,000); PINK1 immunofluorescence, high-content cytometry, 24 h; AID 624263, 2012; active = well fitted activation curve with a large enough effect; inconclusive = small, poorly fitted or top-dose-only effect; inactive = flat fitted curve, though single readings scatter; cell line not stated here;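 also: potency is read from the fitted curve at half-maximal effect; % of control where 0% means no effect; nearly all actives have a fitted effect of over 65% in size; a mitochondrial uncoupler was the plate control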
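PINK1 protein, normally rapidly degraded, was detected by immunofluorescence after 24 hour compound treatment of a stable cell line. Titration data (5 concentrations) came from laser-scanning cytometry, with CCCP-treated wells as controls.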
Menin-MLL FL inh: qHTS Assay for Inhibitors Targeting the Menin-MLL Interaction in MLL Related Leukemias: Competition With Fluorescein Labeled MLL-derived Peptide. Fluorescence polarization, fluorescein-MLL peptide displacement from menin. FP activity change, % at 61.4 µM. 290,000 tested, under 10 active; inconclusive = falling polarisation curve, or a change in total fluorescence; inactive = total fluorescence flat and polarisation flat or rising; no compound was filed as active; the % refers to the polarisation; negative = inhibition;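 also: % of control where 0% means no effect; inhibitors lower the polarisation; unlabelled MLL peptide was the positive control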
TRPML1 ag: qHTS for Agonists of the Human Mucolipin Transient Receptor Potential 1 (TRPML1); TRPML1-expressing cells, Ca2+ dye fluorescence, FDSS; host cell line not named in the record; reference of the full effect not given here; activation, % (no concentration beside the values); actives 0.12% (n = 410,000); in the data active = activation above about 50%; inconclusive = about 30% to 50%; inactive = below about 30%; also: 0% is about no effect; the text of the record puts the active cut at 80%
Target sequence (Q9GZU1 whole entry, looked up): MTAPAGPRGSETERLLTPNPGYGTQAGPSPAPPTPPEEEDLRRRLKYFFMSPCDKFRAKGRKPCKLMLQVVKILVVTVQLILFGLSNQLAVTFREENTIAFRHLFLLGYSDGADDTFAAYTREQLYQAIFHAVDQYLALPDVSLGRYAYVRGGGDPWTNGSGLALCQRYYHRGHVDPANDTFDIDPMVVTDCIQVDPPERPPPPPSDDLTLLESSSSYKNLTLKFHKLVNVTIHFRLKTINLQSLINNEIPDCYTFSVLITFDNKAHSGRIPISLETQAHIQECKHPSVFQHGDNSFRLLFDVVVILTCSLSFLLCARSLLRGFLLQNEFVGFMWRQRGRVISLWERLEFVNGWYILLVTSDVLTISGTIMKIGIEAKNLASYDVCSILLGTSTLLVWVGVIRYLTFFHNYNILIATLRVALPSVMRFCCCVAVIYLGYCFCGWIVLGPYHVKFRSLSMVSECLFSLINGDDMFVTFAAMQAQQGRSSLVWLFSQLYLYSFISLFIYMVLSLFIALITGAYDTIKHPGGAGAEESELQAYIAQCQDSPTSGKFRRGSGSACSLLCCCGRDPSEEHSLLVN
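Agonist activity was taken from a 110 s kinetic Ca2+ dye read on the FDSS after pinning compounds onto TRPML1-DL cells. The cells were seeded at 1,500/well with Tet inducer, incubated about 16 h, then dye-loaded at room temperature.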
Sfp PPTase inh: qHTS Assay for Inhibitors of Bacillus subtilis Sfp phosphopantetheinyl transferase (PPTase); 4'-phosphopantetheinyl transferase ffp (Bacillus subtilis), Q9F4F7; Biochemical Sfp PPTase activity, qHTS; Potency, µM, without a hit: max response, negative = inhibition, most hits filed as inhibitors; actives 3.5% (n = 310,000); AID 1490, 2009; active = well fitted inhibition curve with a large enough effect; inconclusive = small, poorly fitted or top-dose-only effect, or another doubt; inactive = no such curve, though single readings can be large or run the other way;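 also: the enzyme is Sfp with the accession as filed and its product quenches rhodamine fluorescence; potency is read from the fitted curve at half-maximal effect; 0% = enzyme reaction without inhibitor and -100% = no enzyme wells; top concentration of the series not given in the record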
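Buffer: 50 mM Hepes-Na pH 7.6, 10 mM MgCl2, 0.01% Nonidet P-40, 0.01% BSA. Enzyme 15 nM, pre-exposed to compound 15 min; substrates then added and fluorescence change tracked over 30 min.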
TRPML1 blocker: qHTS for Inhibitors of the Human Mucolipin Transient Receptor Potential 1 (TRPML1). TRPML1-inducible cells, Ca2+ dye fluorescence, FDSS; hits give low values; inhibition of EC80 agonist-evoked calcium signal. actives 0.02% (n = 390,000). activity change, negative = inhibition, % (no concentration beside the values). AID 624415, 2012. Mucolipin-1 (Homo sapiens), Q9GZU1; in the data active means activity change below about -50%; inconclusive means about -30% to -50%; inactive means above about -30%;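 also: stimulus is agonist 54-4 at its EC80 concentration; % is scaled to controls: 0 for no effect and ±100 for the full control effect; compound concentration not given in the record; the text of the record puts the active cut at -80%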
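TRPML1-DL cells, Tet-induced overnight (~16 h, 37 °C) at 1,500 cells/well, were loaded with Ca8 no-wash dye plus quencher for 45-90 min at room temperature. Compounds were pinned during FDSS kinetic reading; agonist 54-4 at EC80 (4 uM final) then added.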
ClpP mod: qHTS Assay for Activators of ClpP; purified B. subtilis ClpP, FRET peptide cleavage, 20 min; actives 1.9% (n = 340,000); Potency, µM (doses to about 57.5 µM), for the others: top-dose activity change, negative = active; ATP-dependent Clp protease proteolytic subunit (Bacillus subtilis (strain 168)), P80244; AID 651965, 2013; active = well fitted falling curve with a large enough effect; inconclusive = small, poorly fitted or top-dose-only effect; inactive = no such curve, though single readings can be large or run the other way; also: potency is read from the fitted curve at half-maximal effect; the source files actives as falling curves though it sought activators and does not explain the sign; nearly all actives have a fitted effect of over 65% in size; many hits overshoot -100%
Target sequence (P80244 whole entry, looked up): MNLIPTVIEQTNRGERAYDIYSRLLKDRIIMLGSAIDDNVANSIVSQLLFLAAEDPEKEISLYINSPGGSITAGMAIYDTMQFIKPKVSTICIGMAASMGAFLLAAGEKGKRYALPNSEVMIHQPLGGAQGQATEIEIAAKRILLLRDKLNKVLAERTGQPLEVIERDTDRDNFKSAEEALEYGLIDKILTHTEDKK
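ClpP 10 microg/mL final, pH 8 Tris/KCl buffer with BSA, glycerol, Tween-20; compound pinned in; FRET-FV substrate; RT 20 min; Ex320/Em430; ΔFRET vs ADEP 5.8 microM, DMSO, no enzyme.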
TRPV1 PAM: HTS Assay for Compounds that Act as Potentiators of the Vanilloid Receptor 1 | Transient receptor potential cation channel subfamily V member 1 (Homo sapiens), Q8NER1 | TRPV1-expressing cells, Fluo-8 calcium influx, capsaicin EC20 potentiation; host cell line not named in the record; control for the full effect not named in the record | potentiation, % at 8.33 µM | actives 0.02% (n = 320,000); active means potentiation above 80%; inconclusive means 30% to 80%; inactive means below 30%; also: 0% is about no effect
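Cells expressing TRPV1 were dye-loaded with Fluo-8 and read kinetically: 10 s baseline, 3 min after compound (agonist portion), then 2 min after EC20 capsaicin (allosteric enhancer portion). Calcium-bound dye fluorescence at 480/520 nm.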
Numbers without * were called inactive; ? = inconclusive; nt = not tested or not shown; & = joins results of further samples; [ ] = dose if it differs, or a comment.

Compound | Sfp PPTase inh | ClpP mod | TRPV1 PAM | TRPML1 blocker | TRPML1 ag | PINK1 expr mod | Menin-MLL FL inh
COc1cccc(CNC(=O)CCC2CCCN(C(=O)c3cscn3)C2)c1 (stereo not given) | 11% | 0.0% | 5 | -7 | -0.3 | -1.2% | 3.9
C[C@H](N)c1nnc(SCc2c(Cl)cccc2Cl)o1 | ? | 0.7% | 3 | 6 | 0.7 | nt | 3.1
C[C@H](NC(=O)c1ccccc1)C(=O)N1CCN(c2ccccc2)CC1 | 20% | nt | 9 | -20 | -0.7 | 0.2% | -0.7
CCCNC(=O)c1cc(C2CCCCN2S(=O)(=O)c2cccc3cccnc23)on1 (stereo not given) | nt | -0.3% | nt | nt | -1.4 | 0.1% | nt
CC(C)(C)n1nnnc1C1c2ccccc2C(=O)N1CCc1c[nH]c2ccccc12 (stereo not given) | nt | -0.9% | nt | nt | 0.6 | -0.3% | nt
Oc1ccc(Nc2nnc(-c3ccc(O)cc3)c3ccccc23)cc1 | 5% | nt | -6 | -13 | 0.5 | 4.9% | 1.3
CN1CCN(S(=O)(=O)c2ccc(N3CCN(c4ccc(O)cc4)CC3)c([N+](=O)[O-])c2)CC1 | nt | -1.2% | 9 | 2 | 0.1 | 1.2% | nt
c1csc(-c2nc3c4ccccc4c4ccccc4c3[nH]2)c1 | 6% | 40µM* | -9 | 32 | 1.8 | 6.8% | -1.6
COCCCn1c(SCc2ccccc2)nc2cc(OC)c(OC)cc2c1=N | -17% | -18% | nt | 5 | -0.2 | 23%[38.3 µM] | 1.4
CCCn1c(SCC(=O)NC2CCCC2)nnc1-c1ccccn1 | 4% | 1.7% | -3 | -4 | -0.2 | 1.8% | 2.7
CC(=O)c1cccc(-c2ccnc3c2CC(C(=O)Nc2cccc(OC(F)(F)F)c2)O3)c1 (stereo not given) | nt | 0.8% | nt | 35 | 0.4 | 0.3% | nt
CCOC(=O)C1CCN(c2c(NC3CCCCCCC3)c(=O)c2=O)CC1 | -15% | -1.8% | -9 | 4 | -0.6 | 1.1% | 5.6
CCOC(=O)c1[nH]c(C)c(CC(C)C)c1C | -3% | nt | -13 | 0 | 1.3 | 5.6% | -2.6
COc1ccc(Cl)cc1NC(=O)NCC1CCN(Cc2ccccc2F)CC1 | 4% | -1.5%&0.2% | -7 | -6&-17 | -0.4&-0.2 | 0.4%&1.0% | 4.9
CCCCN(C=O)c1c(CC)nc2ccc(C(=O)NCCCN3CCCC3=O)cn12 | nt | -21% | nt | 22 | 0.5 | -0.4% | nt
CCN(CC(=O)NCc1ccc(F)cc1)C(=O)/C=C/c1cc(OC)ccc1OC | 10% | nt | -11 | 1 | 0.0 | 10% | -1.0
CC(=O)CC(c1ccc([N+](=O)[O-])cc1)c1c(O)c2ccccc2oc1=O (stereo not given) | 13% | -0.8% | 14 | -10 | -0.6 | 2.2% | 3.4
CCOC(=O)Cn1nc(C)cc1NC(=O)c1ccncc1 | 15% | -2.2% | 0 | -12 | 0.0 | 0.2% | -0.6
O=c1cc(C(F)(F)F)nc(-n2[nH]c3c(c2=O)CCCC3)[nH]1 | -17% | -19% | 5 | 0 | 11 | 1.4% | ?
Cc1c(C)c2ccc(OCC(=O)N(C)C)c(C)c2oc1=O | 13% | -1.0% | 1 | 12 | 6.7 | -1.6% | -1.9

Whole records from above:
Shown for CCCn1c(SCC(=O)NC2CCCC2)nnc1-c1ccccn1 = Sfp PPTase inh = 4%; ClpP mod = 1.7%; TRPV1 PAM = -3; TRPML1 blocker = -4; TRPML1 ag = -0.2; PINK1 expr mod = 1.8%; Menin-MLL FL inh = 2.7
Shown for COCCCn1c(SCc2ccccc2)nc2cc(OC)c(OC)cc2c1=N = Sfp PPTase inh = -17%; ClpP mod = -18%; TRPV1 PAM = nt; TRPML1 blocker = 5; TRPML1 ag = -0.2; PINK1 expr mod = 23%[38.3 µM]; Menin-MLL FL inh = 1.4

Carrying on:
Compound | Sfp PPTase inh | ClpP mod | TRPV1 PAM | TRPML1 blocker | TRPML1 ag | PINK1 expr mod | Menin-MLL FL inh
Cc1cc(C)c(S(=O)(=O)Nc2cccc(S(=O)(=O)NC3=NCCC3)c2)c(C)c1 | -9% | nt | 9 | -7 | -0.2 | -0.6% | 0.0
N/C(=N\c1nc(CSc2nnnn2-c2ccccc2)cc(=O)[nH]1)Nc1ccccc1 | -17% | nt | 3 | nt | nt | nt | 1.8
N#CCCN(C(=O)CCl)c1cccc(Cl)c1 | 12% | 1.3% | 0 | 2 | 0.9 | -1.4% | 2.0
Cc1nc(C(F)(F)F)ccc1C(=O)N1CCC1(C)C(=O)NS(C)(=O)=O (stereo not given) | nt | -1.8% | nt | 18 | 0.0 | 1.0% | nt
CC1(C)Cc2nc3oc4c(=O)n(CC(=O)Nc5cccc(Cl)c5)cnc4c3cc2CO1 | 4% | nt | 0 | 1 | -0.1 | 5.2% | 2.7
COc1ccc(NC(=O)c2cc(-c3ccccc3Cl)no2)cc1 | 10% | 4.8% | -11 | -6 | -0.2 | 1.9% | 0.2
Cc1ccc(F)cc1NC(=O)c1cnccn1 | 23% | 1.0% | -4 | -5 | 0.6 | -0.3% | -7.8
COc1cc2ccccc2cc1C(=O)N(CCN(C)C)c1nc2c(OC)ccc(OC)c2s1 | -25% | -2.5% | 1 | 20 | -0.9 | -1.0% | -1.4
COc1ccc(-c2csc(NC(=O)c3ccccc3C(=O)O)n2)cc1 | -3% | 1.1% | ? | -10 | 2.2 | 0.2% | 1.2
COc1ccc(OC)c2c1cc(C(=O)N[C@H](C(=O)N1CCC(C(=O)O)CC1)C(C)C)n2C | -6% | nt | -15 | -14 | 0.5 | -0.2% | 0.0
COc1cc(NC(=O)c2nc3nc(C)cc(C(F)F)n3n2)c(OC)cc1Cl | nt | 5.0% | nt | -7 | -0.4 | 3.8% | nt
O=C(NCC(c1ccccc1)c1ccccc1)c1nn(-c2ccccc2Cl)nc1CO | nt | -0.6% | nt | 39 | 2.5 | 0.4% | nt
CCc1nc2c(sc3nc(N4CCOCC4)c4c(c32)CC(C)(C)OC4)c(=O)o1 | -4% | nt | 18 | nt | nt | nt | -0.1
C=CCn1c(-c2cccc(OC)c2OC)n[nH]c1=S | 15% | 1.2% | 10 | 12 | -0.3 | 0.3% | 2.4
CN(C)C(=O)c1ccc(NC(=O)Cn2nnnc2-c2ccccc2F)cc1 | nt | 1.7% | nt | -17 | 1.1 | 0.6% | nt
COc1ccccc1CNC(=O)CCn1c(=O)oc2ccccc21 | -1% | 0.4% | nt | 2 | -0.4 | -1.0% | 4.9
COc1ccc(OCc2nnc3n2N=C(c2ccc(OC)cc2)CS3)cc1 | 11% | 2.4% | 1 | 5 | 2.2 | 4.4% | 1.6
O=S(=O)(Nc1ccccc1Cl)c1cc(NC(=S)NCCN2CCOCC2)ccc1Cl | -1% | -0.4% | 14 | 18 | 0.2 | 1.7% | -2.5
CSc1cccc(NC(=O)CN(C)S(=O)(=O)c2ccc3c(c2)n(C)c(=O)c(=O)n3C)c1 | nt | -7.0% | nt | -16 | 1.4 | -1.0% | nt
COc1cccc(C2CC(c3ccccc3Cl)n3nc(N)nc3N2)c1 (stereo not given) | -1% | 1.1% | -15 | -3 | 0.9 | -2.5%[38.3 µM] | -1.5

(continued)
Compound | Sfp PPTase inh | ClpP mod | TRPV1 PAM | TRPML1 blocker | TRPML1 ag | PINK1 expr mod | Menin-MLL FL inh
CC(C)(C)OC(=O)NCCc1nnc(SCC(=O)Nc2ccc(Br)cc2)o1 | 7% | -1.0% | 9 | 24 | 0.7 | 4.5% | 3.5
O=C(Nc1c(-c2ccccc2)nc2ccc(Cl)cn12)c1cccs1 | 18% | -10.0% | 3 | 11 | 1.8 | 4.8% | 2.1
Cc1cc(N/N=C/c2ccc([N+](=O)[O-])o2)nc2ccccc12 | 2% | nt | -7 | 44 | 13 | ? | ?
Nc1[nH]c(C(=O)c2ccccc2)c(-c2ccccc2C(F)(F)F)c1C(=O)NCCc1c[nH]c2ccccc12 | nt | 0.5% | nt | nt | -0.3 | 7.5% | nt
CCN(CC)S(=O)(=O)c1ccc(N2CCOCC2)c(NS(=O)(=O)c2cccs2)c1 | nt | -0.3% | 23 | -21 | 2.8 | 0.4% | nt
Cc1ccc(S(=O)(=O)NC(=O)NCCc2ccccc2)cc1 | 22% | nt | 0 | 17 | -0.5 | 1.4% | 0.9
COc1cc(-c2nnc(SCC(=O)c3ccc(C)cc3)o2)cc(OC)c1OC | 3% | -2.6% | -2 | 5 | -0.1 | 3.6%[38.3 µM] | 3.7
COc1ccc(CN2c3c(Br)cccc3C(=O)CS2(=O)=O)cc1 | nt | -0.3% | nt | -13 | -0.5 | 12% | nt
COC(=O)c1c(-c2c(Cl)cccc2Cl)noc1C(=O)NNC(=O)N(C)C | 0% | nt | 0 | 22 | 0.4 | 3.6% | 1.7
COCCCNC(=O)C1CCCN(S(=O)(=O)c2ccc3c(c2)oc(=O)n3C)C1 (stereo not given) | nt | -0.1% | nt | ? | -0.8 | 2.0% | nt
CCCCCN1C(=O)/C(=C/c2c(N3CCc4ccccc4C3)nc3ccccn3c2=O)SC1=S | nt | nt | nt | 16 | 4.4 | 0.0% | nt
COc1ccc(-c2nc(C#N)c(NCC3CCCO3)o2)cc1OC (stereo not given) | 11% | 70% | 8 | -1 | -0.6 | -2.5%[38.3 µM] | 1.0
CC(=O)C1=CCC(c2ccc(F)cc2)N(S(=O)(=O)c2ccc(C)cc2)C1 (stereo not given) | nt | 0.6%&-2.7% | nt | 16 | -0.5&-0.6 | 1.1%&0.5% | nt
CC(=O)Cn1ncc(N2CCOCC2)c(Cl)c1=O | 20% | -1.9% | -2 | -15 | -0.2 | 1.5% | 2.1
Cc1[nH]n(-c2ccccc2)c(=O)c1C=Nc1ccc(S(N)(=O)=O)cc1 | 7% | nt | -15 | 2 | -0.4 | -2.3% | -0.2

Compound activity (PubChem)

Random draw from the library (roughly 4.4% active in at least one column).
